Rango dissoc inh – qHTS Assay for Inhibitors of RanGTP induced Rango (Ran-regulated importin-beta cargo) - Importin beta complex dissociation | Biochemical FRET Rango-importin beta, RanGTP-induced dissociation | hit rate 0.071% among 340,000 | AID 540253, 2011 | Potency, µM (highest dose often 46.1 µM), inactives show top-dose activity change, negative = inhibition; active means falling FRET ratio curve, often poorly fitted, with flat reads before Ran was added; inconclusive means other falling curves, or compound fluorescence or quenching; inactive means flat or rising ratio curve;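 note: potency is the fitted concentration of half-maximal effect; % of control where 0% means no effect; nearly all actives have a fitted effect of over 45% in size; -100% = wells without RanGTP and RCC1; the record marks most hits as doubtful in a second field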
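Rango (0.1 uM)–importin beta (0.25 uM) complex; RanGTP-RCC1 trigger; 45 min RT; CFP/YFP FRET read.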
miR-21 reporter – qHTS Assay for Modulators of miRNAs and/orActivators of miR-21; HeLa miR-21 FLuc reporter, luciferase, 48 h; Potency, µM (top dose mostly 38.3 µM), without a hit: at the top dose reporter change, positive = more light; 340,000 tested, under 10 active; active = well fitted rising curve with a large enough effect; inconclusive = small, poorly fitted or top-dose-only effect; inactive = no such curve, though single readings can be large or run the other way;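 note: % of control where 0% means no effect; miR-21 action dims this reporter so a rising signal means less miR-21 action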
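HeLa cells stably expressing CMV-driven firefly luciferase with a downstream miR-21 binding sequence, endogenously expressing miR-21, were treated with titrations (up to about 40uM final) for 48 hours at 37 degree Celsius. Luciferase luminescence was read after lysis.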
GLA inh pH 4.5 – qHTS Assay for Inhibitors of Human alpha-Galactosidase at pH 4.5; Alpha-galactosidase A (Homo sapiens), P06280; purified enzyme, 4-MU-alpha-Gal fluorescence, pH 4.5; activity change, negative = inhibition, % at 105 µM; 230,000 tested, under 10 active; inconclusive = small, poorly fitted or top-dose-only inhibition, or a rising curve; inactive = flat fitted curve, though single readings scatter; no compound was filed as active;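 note: 0% = full activity with enzyme and -100% = basal without enzyme; dose as in the result columns while the protocol names 77 µM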
Rango complex inh – qHTS Assay for Inhibitors of Rango (Ran-regulated importin-beta cargo) - Importin beta complex formation | Rango CFP/YFP FRET sensor + importin beta, 45 min | Potency, µM (titrated, usually from 92.2 µM), without a hit: at the top dose inhibition of complex formation | hit rate 0.031% among 340,000 | Importin subunit beta-1 (Homo sapiens), Q14974; active = rising FRET ratio curve, often small or poorly fitted; inconclusive = mostly compound fluorescence or quenching in the first reads; inactive = flat curves in all reads;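 note: potency is the fitted concentration of half-maximal effect; 0% = DMSO wells and 100% = buffer wells lacking importin beta; nearly all actives have a fitted effect of over 15% in size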
Target sequence (Q14974 whole entry, looked up): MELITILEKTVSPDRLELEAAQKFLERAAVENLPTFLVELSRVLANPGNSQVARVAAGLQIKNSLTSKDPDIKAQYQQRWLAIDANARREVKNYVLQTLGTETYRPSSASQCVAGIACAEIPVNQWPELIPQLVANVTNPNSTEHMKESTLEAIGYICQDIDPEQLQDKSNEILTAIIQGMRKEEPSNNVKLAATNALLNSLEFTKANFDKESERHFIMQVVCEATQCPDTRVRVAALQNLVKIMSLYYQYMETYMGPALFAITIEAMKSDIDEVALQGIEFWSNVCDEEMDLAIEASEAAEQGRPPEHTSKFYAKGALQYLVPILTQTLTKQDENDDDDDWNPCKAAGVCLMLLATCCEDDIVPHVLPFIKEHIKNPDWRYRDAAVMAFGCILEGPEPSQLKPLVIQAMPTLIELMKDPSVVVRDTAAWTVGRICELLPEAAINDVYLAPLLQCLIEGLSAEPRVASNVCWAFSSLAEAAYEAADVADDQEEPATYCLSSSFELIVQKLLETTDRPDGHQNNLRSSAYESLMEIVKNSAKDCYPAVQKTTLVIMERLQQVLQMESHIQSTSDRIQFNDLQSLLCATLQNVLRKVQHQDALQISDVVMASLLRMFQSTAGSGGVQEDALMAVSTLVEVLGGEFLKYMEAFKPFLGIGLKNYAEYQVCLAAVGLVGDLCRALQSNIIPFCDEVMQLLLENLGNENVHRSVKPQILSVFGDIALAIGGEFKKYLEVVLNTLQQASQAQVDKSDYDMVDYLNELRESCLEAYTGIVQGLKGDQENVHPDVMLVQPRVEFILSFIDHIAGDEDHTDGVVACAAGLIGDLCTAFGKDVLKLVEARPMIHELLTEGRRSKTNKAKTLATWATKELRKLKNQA
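Inhibition scored from the CFP 486 nm/YFP 530 nm FRET ratio 45 min after adding 0.125 microM importin beta to 50 nM Rango biosensor preincubated 5 min with compound (room temperature, PBS with DTT, Tween-20, BSA). No-importin wells as positive control.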
Starred values were filed as active, the others as inactive; ? = inconclusive; . = no result given; & = joins results of further samples.

Rango dissoc inh	miR-21 reporter	GLA inh pH 4.5	Rango complex inh	molecule
5%	1%	7	?	CCOc1ccc(S(=O)(=O)NCc2cccnc2)cc1C
12%	7%	-4	-2.0%	Cc1ccc(S(=O)(=O)N(C)CC(=O)O/N=C(\N)c2ccc([N+](=O)[O-])cc2)cc1
8%	-1%	3	1.7%	CN(C(=O)c1ccccc1Cl)c1ccccc1
-9%	0%	10	0.7%	O=C1CN(C(=O)COC(=O)c2cc(S(=O)(=O)N3CCOCC3)ccc2Cl)c2ccccc2N1
7%	-10%	-15	0.3%	O=C(Cc1ccc(Cl)cc1Cl)OCC(=O)c1ccc[nH]1
-4%	.	.	-3.2%	O=C(CSc1nc2[nH]ncc2c(=O)[nH]1)Nc1cccc([N+](=O)[O-])c1
-9%	16%	-9	0.1%	Cc1cccc(NC(=O)COc2cccc3c2CCN(C)C3=O)c1
1%	1%	2	0.4%	CCOC(=O)CCn1c(=O)c2c(nc(Br)n2Cc2ccccc2)n(C)c1=O
15%	-1%	1	-3.0%	O=C(c1ccccc1)N(Nc1ccccc1)c1ccccc1
-9%	.	.	-0.2%	CC(C)c1ccc(S(=O)(=O)N2CCN(CC(=O)Nc3ccc(Cl)cc3F)CC2)cc1
10%	0%	1	-3.4%	CC(=O)C1=C(O)C(=O)N(CCCn2ccnc2)C1c1ccc(Br)cc1 (centres undefined)
8%	5%	.	3.1%	COc1cc(CN2CCN(Cc3ccccc3C(F)(F)F)CC2)cc(OC)c1OC
46%	-1%	-2	-5.6%	O=C(NNC(=O)c1cccnc1)NC1CCCCC1
-3%	-4%	-5	6.2%	CCCCNC(=O)CCN1N=C(c2ccccc2)CCC1=O
2%	-15%	4	1.7%	COc1ccc(S(=O)(=O)c2ccc(OC)c(OC)c2)cc1OC
0%	7%	-3&6	0.6%	O=c1cc(-c2ccccc2)[nH]c2ccc(F)cc12
-3%	5%&4%	.	4.2%	CCc1ccc(-c2nc3ccc(Br)cc3c(C(=O)O)c2C)s1
-23%	-5%	3	?	CCOC(=O)CC1C(=O)NCCN1Cc1cccc(C(F)(F)F)c1 (centres undefined)
-16%	.	.	0.5%	COc1cc(C)ccc1OCCCOc1cc(C)ccc1Cl
?	-24%	1	1.2%	O=C(Cn1c(COc2ccc(Cl)cc2)nc2ccccc21)NCC(F)(F)F

Of the compounds above, these have bromine.
Rango dissoc inh	miR-21 reporter	GLA inh pH 4.5	Rango complex inh	molecule
1%	1%	2	0.4%	CCOC(=O)CCn1c(=O)c2c(nc(Br)n2Cc2ccccc2)n(C)c1=O
10%	0%	1	-3.4%	CC(=O)C1=C(O)C(=O)N(CCCn2ccnc2)C1c1ccc(Br)cc1 (centres undefined)
-3%	5%&4%	.	4.2%	CCc1ccc(-c2nc3ccc(Br)cc3c(C(=O)O)c2C)s1

The list goes on.
Rango dissoc inh	miR-21 reporter	GLA inh pH 4.5	Rango complex inh	molecule
15%	1%	1	3.1%	CC(=O)Nc1sc(C)c(C)c1C(=O)OCC(=O)Nc1cc(S(=O)(=O)N2CCCCC2)ccc1Cl
-6%	0%	-4	4.5%	Nc1c(C(=O)NCc2ccc(Cl)cc2)sc2nc3c(c(C(F)(F)F)c12)CCC3
-20%	21%	0	-3.8%	COc1ccccc1NS(=O)(=O)c1cccc(NC(=O)c2[nH]c(C)c(C(C)=O)c2C)c1
16%	.	.	4.6%	COc1ccc(CNC(=O)C2CCN(C(=O)c3ccc(F)cc3)CC2)cc1OC
7%	-1%	.	-2.0%	CCN(CC)C(=O)Cn1cc(S(=O)(=O)CC(=O)NCc2ccc(F)cc2)c2ccccc21
19%	10%	5	1.4%	CCN1CC(CN(C)Cc2nc(-c3ccc(Cl)cc3)no2)CC1=O (centres undefined)
5%	-4%	.	4.3%	Cc1ccnc(NC(=O)c2ccc3c(c2)C(=O)N(CCC(C)C)C3=O)c1
-3%	-6%	-12	-0.2%	COCCn1c(=O)[nH]c(=O)c2cc(C(=O)c3cc(Cl)ccc3O)cnc21
3%	17%	.	-0.7%	CCCCCCC(O)(c1ccccc1)C(CN1CCOCC1)c1ccccc1 (centres undefined)
0%	-2%	-15	-1.6%	Cn1c(NC(=O)c2ccc(Cl)cc2)c(-c2ccccn2)c(=O)c2ccccc21
0%	-28%	-5	1.5%	CCn1c(Cc2cccn2C)nnc1SCC(=O)c1ccc(C)cc1
9%	-9%	-7	0.1%	COc1ccc2c(c1)c(=O)oc1cc3occ(C(C)(C)C)c3cc12
-17%	3%	-6	1.5%	COc1ccccc1Nc1c([N+](=O)[O-])cc(C)cc1[N+](=O)[O-]
1%	-5%	2	-0.4%	CCC[N+](CC#Cc1ccccc1)(CCC)CC(=O)OC
-7%	.	.	3.9%	CC(=O)N1CCN(C(=S)NC(=O)c2ccc(F)cc2)CC1
?	-20%	.	?	CNC(C)C#Cc1ccc2sc3cccc(OC)c3c(=O)c2c1 (centres undefined)
-1%	.	.	0.0%	CC(Oc1ccc(Br)cc1)C(=O)Nc1cc(Cl)ccc1N1CCN(C)CC1 (centres undefined)
1%	.	.	-2.2%	Cc1ccc(CN(C)C(=O)COC(=O)CSc2ccc(C(N)=O)cc2[N+](=O)[O-])cc1
5%	0%	0	-2.1%	COc1ccc(CC(=O)Nc2cccc(/C(C)=N/NC(=O)c3cccc([N+](=O)[O-])c3)c2)cc1
17%	3%	3	0.1%	CC(C)(C)NC(=O)NC(=O)COC(=O)Cc1c(Cl)cccc1Cl
13%	3%	-2	3.3%	Cc1cc(NC(=O)CCCn2nc([N+](=O)[O-])c(Br)c2C)no1
5%	.	.	?	Cc1ccc(C)c(NC(=O)CN(C)C(=O)c2cccc(-n3cccc3)c2)c1
-6%	15%	-5	-1.8%	COc1cccc(C(c2nnnn2Cc2ccco2)N2CCN(c3cccc(C)c3C)CC2)c1OC (centres undefined)
-10%	-3%	3	1.5%	CC(NC(=O)c1ccnc(C(C)(C)C)c1)c1ccccc1 (centres undefined)
15%	?	.	4.6%	Clc1ccc(CN2CCc3c([nH]c4ccccc34)C2)cc1Cl
11%	-6%	4	-1.9%	COCCCN(C)C1CCN(C(=O)Nc2ccc(F)cc2)CC1
-14%	0%	.	4.5%	O=C(NCCCn1ccnc1)/C(=C\c1ccccc1Cl)NC(=O)c1ccccc1
8%	-10%	7	-0.6%	O=C(Nc1cc([N+](=O)[O-])ccc1F)c1ccc2c(c1)OCCO2
0%	1%	.	-0.9%	Cc1c(CCC(=O)O)c(=O)oc2c(C)c(OCc3ccccc3Cl)ccc12
3%	21%	-5	0.1%	CCOc1cc(CNc2ccc(O)cc2)cc(Br)c1OCc1ccccc1F
-7%	?	-17	-3.8%	COc1ccc(CN(C(=O)c2ccc(-c3ccccc3)[nH]2)C(C(=O)NC(C)(C)C)c2ccncc2)cc1 (centres undefined)
-8%	0%	.	-6.6%	COc1ccc(/C=C2\SC(=S)N(CCC(=O)N(CCO)c3ccccc3)C2=O)cc1OC
2%	.	.	0.4%	CCCn1nc(C(=O)NNC(=O)CCOc2ccccc2OCC)c2ccccc2c1=O
2%	3%	-14	-0.1%	CC(=O)NC(=O)c1nnn(Cc2ccccc2)c1NC(C)=O
1%	-7%	5	3.3%	CCCCn1c(=O)c(CCC(=O)O)nc2ccccc21
18%	.	.	0.1%	C[C@@H]1CC[C@]2(C(=O)O)CC[C@]3(C)C(=CCC4[C@@]5(C)CC[C@H](O)[C@@](C)(C(=O)O)C5CC[C@]43C)C2[C@]1(C)O (some centres undefined)
-18%	-33%	-2	1.3%	Nc1c(Cl)ncnc1N/N=C/c1ccc2ccccc2n1
-9%	-8%	-8	?	Cc1ccc(N=CC2=C(O)CC(c3ccco3)CC2=O)cc1 (centres undefined)
1%	-14%	4	-0.2%	Cc1cccc(NC(=S)NC(=O)c2ccc(Br)o2)c1C
22%	3%	-8	2.9%	O=C(CCNS(=O)(=O)c1ccc(Cl)cc1)N1CCC2(O)CCCCC2C1 (centres undefined)
0%	4%	2	4.1%	CCOC(=O)c1cnc(SCC#N)nc1N
-1%	2%	.	-0.8%	CCN(CC(=O)NCCCn1ccnc1)S(=O)(=O)c1ccc(C)cc1
-11%	0%	.	-0.8%	CC(C)NC(=O)c1ccccc1NC(=O)C1CC(=O)N(C(C)C)C1 (centres undefined)
3%	-11%	.	1.7%	COc1ccc(OC)c(NC(=O)C2CCCN(S(=O)(=O)c3c(C)nn(C)c3C)C2)c1 (centres undefined)
0%	0%	1	-2.6%	O=C(Nc1cc(S(=O)(=O)N2CCOCC2)ccc1Cl)c1cc(=O)c2ccccc2o1
6%	-42%	0	-0.5%	CC(C)C(=O)Nc1nnc(NC(=S)Nc2ccccc2)s1
-2%	-3%	2	-1.1%	COc1ccc(NC2=NC(=S)N(c3cccc(C)c3)C23CCCCC3)cc1
-5%	0%	.	?	O=C(Cn1ncc2c3ccccc3n(Cc3ccc(Cl)cc3)c2c1=O)NCCCN1CCCC1=O
24%	-7%	-7	0.1%	O=C(CCCn1c(=S)[nH]c2ccccc2c1=O)NCc1ccco1
?	?	-6	?	N#C/C(=C\c1ccc([N+](=O)[O-])o1)c1nc2ccccc2[nH]1
3%	-53%	-4	-0.9%	C/C(=N\Nc1ccccn1)c1ccc(C(C)C)cc1
-2%	-51%	11	-0.8%	N/C(=N\OC(=O)Cc1ccccc1)c1ccc(Br)cc1
7%	4%	3	2.8%	CCCC(C)NC(=O)Cc1ccccc1[N+](=O)[O-] (centres undefined)
-17%	20%	-7	-0.3%	Cc1ccc(-c2cc(C(=O)N/N=C/C(Br)=C/c3ccccc3)n[nH]2)o1
-15%	0%	6	4.0%	CCOCCOC(=O)c1ccc(-n2cncn2)nc1
-23%	0%	.	4.6%	COC(=O)c1cccc(NC(=O)CSc2nncn2-c2ccccn2)c1
-6%	0%	-1	0.4%	CC(OC(=O)c1ccc2c(=O)n3c(nc2c1)CCCCC3)C(=O)Nc1ccc(Cl)cn1 (centres undefined)
-4%	.	.	1.3%	O=C1OC[C@@H]2CCCN2C(=O)[C@H](CC(=O)N(CCO)Cc2ccccc2)C/C=C\C[C@H]1Cc1ccc(F)cc1
-19%	-1%	1	3.7%	Cn1ncc(C#N)c1/N=C/N1CCCCC1
17%	.	.	-0.2%	COCC(=O)N(C)[C@H]1C[C@H]2c3cc(-c4ccccc4)ccc3CCN2C(=O)[C@H]1[C@H](C)O

Next section.
Rango dissoc inh	miR-21 reporter	GLA inh pH 4.5	Rango complex inh	molecule
-5%	-39%	-7	1.9%	CCOc1cc(C2c3c(n[nH]c3C)C(=O)N2c2ccc(Br)cc2)ccc1O (centres undefined)
?	-28%	13	?	CN1CCc2c(sc3c2C(=O)NC(c2cccs2)N3)C1 (centres undefined)
-11%	-2%	1	-1.9%	Cn1c(C(=O)NCCCN2CCCCCC2)cc2c(=O)n(C)c3ccccc3c21
7%	0%	.	-2.5%	O=C(CNC(=O)c1ccco1)NCc1nc2ccccc2[nH]1
20%	-7%	0	-3.5%	CC(=O)c1ccc(NC(=S)NC(=O)c2c(Cl)c(C)nn2C)cc1
-8%	0%	.	6.6%	Cc1ccc(NC(=O)CCS(=O)(=O)c2cc3c(cc2Cl)NC(=O)CO3)cc1

Taken from above:
O=C(CNC(=O)c1ccco1)NCc1nc2ccccc2[nH]1 in Rango dissoc inh → 7%
CC(=O)c1ccc(NC(=S)NC(=O)c2c(Cl)c(C)nn2C)cc1 in Rango dissoc inh → 20%
Cn1c(C(=O)NCCCN2CCCCCC2)cc2c(=O)n(C)c3ccccc3c21 in Rango dissoc inh → -11%
Cc1ccc(NC(=O)CCS(=O)(=O)c2cc3c(cc2Cl)NC(=O)CO3)cc1 in Rango dissoc inh → -8%

Bioassay records as filed in PubChem BioAssay.

A portion of the library (hit frequency here may not be typical).
